TRPML1 ag: qHTS for Agonists of the Human Mucolipin Transient Receptor Potential 1 (TRPML1) | Mucolipin-1 (Homo sapiens), Q9GZU1 | TRPML1-expressing cells, Ca2+ dye fluorescence, FDSS; host cell line not named in the record; reference of the full effect not given here | activation, % (no concentration beside the values) | 410,000 tested, 0.12% active | AID 624414, 2012; in the data active = activation above about 50%; inconclusive = about 30% to 50%; inactive = below about 30%; further: 0% is about no effect; the text of the record puts the active cut at 80%
Target sequence (Q9GZU1 whole entry, looked up): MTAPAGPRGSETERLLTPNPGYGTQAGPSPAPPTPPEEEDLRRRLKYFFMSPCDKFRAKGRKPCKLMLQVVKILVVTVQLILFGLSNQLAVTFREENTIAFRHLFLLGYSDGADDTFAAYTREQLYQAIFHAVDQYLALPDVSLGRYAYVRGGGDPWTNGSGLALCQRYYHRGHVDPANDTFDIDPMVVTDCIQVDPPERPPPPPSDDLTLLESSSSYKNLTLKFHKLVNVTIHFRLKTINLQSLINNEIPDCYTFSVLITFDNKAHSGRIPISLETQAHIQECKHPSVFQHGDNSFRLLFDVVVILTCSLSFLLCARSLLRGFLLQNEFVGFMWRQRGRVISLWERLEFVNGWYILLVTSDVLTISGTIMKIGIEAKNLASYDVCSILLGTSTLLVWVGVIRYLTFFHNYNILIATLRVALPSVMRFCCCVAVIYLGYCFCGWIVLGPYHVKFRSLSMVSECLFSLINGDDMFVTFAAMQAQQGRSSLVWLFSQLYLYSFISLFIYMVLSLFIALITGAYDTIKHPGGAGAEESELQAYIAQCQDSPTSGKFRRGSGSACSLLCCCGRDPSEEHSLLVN
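In this qHTS format, compounds were pin-transferred onto Ca8-dye-loaded TRPML1-DL cells induced with Tet overnight, and intracellular Ca2+ fluorescence was recorded kinetically for 110 s after a 10 s baseline. A subsequent 4uM final 54-4 (EC80) addition followed by a second 110 s read served as the antagonist phase.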
Six1-Eya2 blk: qHTS Assay for Inhibitors of the Six1/Eya2 Interaction; AID 651725, 2012; Homeobox protein SIX1 (Homo sapiens) + Protein phosphatase EYA2 (Homo sapiens), …; AlphaScreen GST-Six1/His-Eya2 binding, biochemical; stronger effect = lower value; control for the full effect not named in the record; activity change, % (test concentration not listed); 360,000 tested, 0.56% active; in the data active = activity change below about -65%; inconclusive = about -30% to -65%; inactive = above about -30%; further: on the % scale 0 is the no-effect control and ±100 the full control effect; compound concentration not given in the record
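Compounds are tested against tagged Six1 and Eya2 proteins bridged by glutathione donor and nickel acceptor beads; after a one-hour incubation at 37 °C without light, AlphaScreen emission is recorded.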
D2 agonist: Beta-Arrestin HTS for Positive Allosteric Modulators of the Human D2 Dopamine Receptor: Agonists | D(2) dopamine receptor (Homo sapiens), P14416 | activation, % (no concentration beside the values) | DiscoveRx PathHunter D2 beta-arrestin, luminescence, 90 min; 100% = 57 uM dopamine signal | 360,000 tested, 0.084% active; in the data active = activation above about 40%; inconclusive = about 15% to 40%; inactive = below about 15%; further: compound concentration not given in the record; the text of the record calls up to 30% inactive
Target sequence (P14416 whole entry, looked up): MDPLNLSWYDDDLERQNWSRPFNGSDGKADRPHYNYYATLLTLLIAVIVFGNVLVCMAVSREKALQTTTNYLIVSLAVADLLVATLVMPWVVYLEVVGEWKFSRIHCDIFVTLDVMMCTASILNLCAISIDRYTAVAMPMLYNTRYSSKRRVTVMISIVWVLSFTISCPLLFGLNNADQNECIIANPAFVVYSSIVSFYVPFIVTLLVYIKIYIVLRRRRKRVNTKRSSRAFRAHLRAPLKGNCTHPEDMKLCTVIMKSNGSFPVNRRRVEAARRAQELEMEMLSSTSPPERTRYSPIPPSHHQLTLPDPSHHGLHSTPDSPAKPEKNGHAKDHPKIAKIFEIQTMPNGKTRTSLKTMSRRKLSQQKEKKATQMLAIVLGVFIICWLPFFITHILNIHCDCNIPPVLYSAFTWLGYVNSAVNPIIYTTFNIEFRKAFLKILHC
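Agonist mode: compounds alone added to overnight-plated D2 PathHunter cells for 90 min at 37 C, with 57 uM final dopamine (EC100) defining full response. Beta-arrestin recruitment detected by chemiluminescent reagent, read after 1 h at ambient temperature.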
PINK1 modulator: A Quantitative High throughput Screen to Identify Chemical Modulators of PINK1 Expression; PINK1 immunofluorescence, high-content cytometry, 24 h; Potency, µM (doses to about 76.6 µM), for inactives: at the top dose activation (PINK1 increase), hits mostly activators; 410,000 tested, 0.2% active; active = well fitted activation curve with a large enough effect; inconclusive = small, poorly fitted or top-dose-only effect; inactive = flat fitted curve, though single readings scatter; cell line not stated here;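 further: potency means the concentration at half of the fitted maximal effect; % of control where 0% means no effect; nearly all actives have a fitted effect of over 65% in size; a mitochondrial uncoupler was the plate control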
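PINK1 protein, normally rapidly degraded, was detected by immunofluorescence after 24 hour compound treatment of a stable cell line. Titration data (5 concentrations) came from laser-scanning cytometry, with CCCP-treated wells as controls.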
D2 PAM: Beta-Arrestin HTS for Positive Allosteric Modulators of the Human D2 Dopamine Receptor: Potentiators. DiscoveRx D2 beta-arrestin cells, luminescence, 90 min; 100% = 57 uM dopamine signal. 360,000 tested, 0.23% active. potentiation, % (no concentration beside the values); active = potentiation of 50% or more; inconclusive = 30% to 50%; inactive = 30% or less;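 further: compound concentration not given in the record; tested on top of an EC20 dose of dopamine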
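PathHunter D2 cells, attached overnight at 37 deg C, received compound in DMSO plus dopamine at EC20 (50 nM final) for 90 min at 37 deg C. Beta-arrestin recruitment was read as luminescence after 1 h with detection reagent at ambient temperature.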
CtBP-E1A inh: qHTS Assay for Inhibitors of the CtBP/E1A Interaction. 340,000 tested, 0.49% active. activity change, % (test concentration not listed). AID 651724, 2012. CtBP / adenovirus E1A interaction (AlphaScreen). AlphaScreen GST-E1A/His-CtBP binding, 1536-well; stronger effect = lower value; control for the full effect not named in the record; in the data active means activity change below about -65%; inconclusive means about -30% to -65%; inactive means above about -30%; further: on the % scale 0 is the no-effect control and ±100 the full control effect; compound concentration not given in the record
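AlphaScreen with 125 nM GST-E1A and 125 nM His-CtBP (5X stocks) in Tris pH 8.0, 300 mM NaCl, BSA, Tween 20, TCEP. Compounds preincubated 2 h at 37 deg C, then glutathione donor/nickel acceptor beads added for 1 h at 37 deg C in dark.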
An asterisk follows results filed as active; ? = inconclusive; . = no result given; [ ] = remark or other dose.

Compound	TRPML1 ag	Six1-Eya2 blk	D2 agonist	PINK1 modulator	D2 PAM	CtBP-E1A inh
C[C@@H]1C[C@H](O)c2cc(Cl)ccc2N1	-0.5	-0.5	0.1	0.0%	18.5	-0.2
CCn1c(SCc2cccc(F)c2)nnc1-c1ccncc1	-0.6	1.9	-1.0	5.8%	-5.7	8.7
COc1ccc(S(=O)(=O)N2CCCCCC2)cc1N(C)S(=O)(=O)c1ccc(C)cc1	1.0	6.4	-0.4	1.5%	5.5	18.2
C[C@]1(C(=O)O)Cc2oncc2C[C@@H]1C(=O)O	-0.2	1.2	-4.4	0.0%	-3.1	-0.4
COC(=O)Nc1ccc(S(=O)(=O)N2CCCC(C(=O)N3CCC(C)CC3)C2)cc1 (stereo not drawn)	0.3	-6.0	-3.9	0.2%	-2.2	10.7
COc1ccccc1CN(C(=O)CCl)C(C(=O)NC1CCCCC1)c1ccncc1 (stereo not drawn)	2.2	-8.5	-0.3	6.5%	-13.6	-1.1
CCc1nc2ccc(C(=O)Nc3ccc4c(c3)OCO4)cc2nc1CC	1.1	-11.3	0.4	0.3%	0.1	1.8
CCc1nnc(SCC(=O)Nc2ccc(N3CCN(S(C)(=O)=O)CC3)cc2)o1	-0.6	1.0	3.4	0.8%	1.4	0.7
Cc1ccccc1NC(=O)COC(=O)c1cc[n+]([O-])cc1	-0.2	-3.3	2.3	1.9%	6.6	3.5
COc1ccc(OC)c(NC(=O)CCN2CC(C)CC(C)C2)c1 (stereo not drawn)	-0.6	-4.6	-4.1	0.3%	-68.7	.
Clc1ccc(-n2cc(-c3ccc(Br)cc3)[n+]3c2CCCCC3)cc1	0.8	5.1	-1.8	-1.4%	-10.8	.
C/C(CC(=O)Nc1cccc(Cl)c1Cl)=N\NC(=O)C(=O)N1CCCC1	0.0	-4.5	-1.2	-2.2%	-0.3	5.3
COc1ccc(C(C(=O)NCC2CCCO2)N(C(=O)CNC(=O)c2cccs2)c2ccc(NC(C)=O)cc2)cc1OC (stereo not drawn)	0.3	8.9	-0.8	0.2%	-3.1	8.8
CC(OC(=O)C1=COCCO1)C(=O)Nc1ncc(Cl)cc1Cl (stereo not drawn)	0.9	0.6	1.0	1.4%	-7.8	9.7
CCOC(=O)c1c(NC(=O)c2cccs2)sc2c1CCCC2	-0.7	11.8	-1.2	1.2%	-6.3	6.0
COc1ccc(N(CC(=O)NC2CCCC2)S(=O)(=O)c2ccc(NC(C)=O)cc2)cc1	-1.4	3.4	-4.6	0.5%	-4.0	21.2
Oc1c(CN2CCCC(C(F)(F)F)C2)cc(Cl)c2ccccc12 (stereo not drawn)	0.0	-3.6	3.6	22.7%	7.6	1.8
Cc1nn(-c2ccccc2)c(Oc2ccc(F)cc2)c1/C=N/n1cnnc1	-1.2	0.3	-0.8	-1.0%	-11.8	1.5
Cc1ccc(CN2CCN(Cc3c(C)nn(C(C)C)c3C)CC2CCO)o1 (stereo not drawn)	-0.4	0.6	1.4	1.0%	-5.4	.
Cc1ccccc1OCC(=O)OCC(=O)Nc1ccc(Cl)cn1	0.6	3.3	-3.2	0.4%	-4.0	.
Cc1ccc(S(=O)(=O)N2CCOCC2)cc1NC(=O)CSc1cccc[n+]1[O-]	-0.2	2.0	1.5	0.6%	-12.2	3.0
Cc1sc2ncn(/N=C/c3ccco3)c(=O)c2c1C	0.5	0.2	-2.1	2.0%	0.0	1.9
Cc1ccc(S(=O)(=O)N2CC(=O)NC(=O)C2)cc1	0.0	0.3	-0.9	0.1%	-9.8	-8.6
N#C/C(=N\Nc1ccc(Br)cc1)C(=N)N1CCOCC1	1.6	-0.6	-4.3	1.1%	-7.1	.
O=C(CCS(=O)(=O)c1cccc2nsnc12)NC1CCCCC1	-0.7	-0.9	-1.2	1.1%	-8.7	2.4
COc1ccc(C(NC(=O)C2CCN(CCCc3ccccc3)CC2)c2ccccn2)cc1 (stereo not drawn)	0.3	0.3	-4.4	-0.8%	-16.5	1.2
Cc1ccc2nc(Nc3ccc(F)cc3)c3nncn3c2c1	-0.3	0.6	0.6	-0.2%	-6.0	1.9
COC(=O)c1cccc(NC(=S)NCc2ccc(F)cc2)c1	5.8	7.4	3.2	-1.0%	-6.5	4.3
N/C(=N\O)c1ccc([N+](=O)[O-])s1	-0.6	9.0	-0.7	0.7%	-1.0	.
CCn1c(=O)c2c(n3c(=S)[nH]nc13)-c1ccccc1CC21CCCCC1	0.6	-5.4	9.4	0.8%	3.2	4.3
COc1ccc(CCNC(=O)c2ccccc2)cc1	0.2	0.6	3.7	0.2%	-8.5	1.4
O=C(CSc1ccc(-c2cccnc2)nn1)Nc1ccccc1F	-0.6	-0.4	-2.0	1.4%	-1.7	0.2
O=C(NCc1ccccc1)c1ccc2nc(N3CCOCC3)sc2c1	0.9	-1.4	1.9	2.7%	1.0	0.5
Cc1cccc(Nc2nc(NC(C)C)nc(Oc3ccc(=O)n(C)n3)n2)c1	-0.1	-1.0	-2.0	9.5%[38.3 µM]	-2.2	-3.6
CCCNC(=S)N1CCC(NC(=O)Nc2ccc(C)cc2)CC1	2.6	-1.4	1.1	-1.2%	12.6	.
CCN(CC)c1ccc(NC(=O)c2ccc(NC(=O)C3CCCO3)cc2)c(C)c1 (stereo not drawn)	-0.9	-14.1	-0.2	-2.1%	-6.2	-5.2
Cc1c(Cl)cccc1-n1cnc(=O)c2ccccc21	0.3	4.2	-6.9	-0.2%	-4.2	2.9
COc1ccccc1C1OCC(C)([N+](=O)[O-])CO1 (stereo not drawn)	-0.4	7.4	1.2	1.8%	-6.0	4.3
CN1CCN(C(=S)NC(=O)c2ccc(Br)cc2)CC1	0.1	1.3	-1.7	-0.4%	-9.3	3.8
CCOC(=O)C1CCN(C(=O)/C=C/c2cccs2)CC1	2.5	-11.4	0.1	0.0%	0.1	-5.3
O=C1CC(N2CCC(c3nc4ccccc4o3)CC2)C(=O)N1 (stereo not drawn)	0.9	1.6	-0.4	1.1%	-1.8	2.6
COc1ccc(O)c(/C=N/Nc2nc(C)cc(-c3ccccc3)n2)c1	1.0	-27.8	-18.4	2.8%	-4.2	-16.6
Cc1nnc(NC(=O)c2cccc(S(=O)(=O)N3CC(c4ccccc4)CC3=O)c2)s1 (stereo not drawn)	-0.1	8.2	-0.8	1.8%	-4.5	-3.7
COc1ccc(CCNC(=O)CCS(=O)(=O)c2cccc3nsnc23)cc1OC	-0.4	-0.3	-2.3	-1.1%	-6.4	6.8
Cc1ccc(NC(=O)c2ccc(=O)[nH]c2)cc1S(=O)(=O)N1CCCCC1	0.1	-28.7	-6.5	1.2%	-8.6	-20.5

Quoted from the entries so far, 3 compounds:
Compound	TRPML1 ag	Six1-Eya2 blk	D2 agonist	PINK1 modulator	D2 PAM	CtBP-E1A inh
O=C(CSc1ccc(-c2cccnc2)nn1)Nc1ccccc1F	-0.6	-0.4	-2.0	1.4%	-1.7	0.2
O=C(NCc1ccccc1)c1ccc2nc(N3CCOCC3)sc2c1	0.9	-1.4	1.9	2.7%	1.0	0.5
Cc1cccc(Nc2nc(NC(C)C)nc(Oc3ccc(=O)n(C)n3)n2)c1	-0.1	-1.0	-2.0	9.5%[38.3 µM]	-2.2	-3.6

Additional compounds.
Compound	TRPML1 ag	Six1-Eya2 blk	D2 agonist	PINK1 modulator	D2 PAM	CtBP-E1A inh
CN(C(=O)COc1ccc(Cl)cc1Br)C1CCCCC1	0.7	2.8	-2.4	6.4%	-12.1	9.6
CCC1CC(C)(C(=O)Nc2ccc(S(N)(=O)=O)cc2)OC1=O (stereo not drawn)	-0.2	2.1	-4.8	-0.8%	8.5	3.5
CSC1=NC(=O)/C(=C\c2cccc3ccccc23)S1	0.9	-0.4	-1.3	0.5%	-4.1	-9.9
Cc1nnc(SCCn2c(N3CCCC(C)C3)nc3c2c(=O)[nH]c(=O)n3C)s1 (stereo not drawn)	-0.3	3.0	-1.9	3.2%[38.3 µM]	-11.0	9.3
Cc1ccc(OCC(=O)NNC(=O)c2ccco2)c(C)c1	1.4	-2.3	-2.2	-1.1%	-15.1	-9.4
CC(C)(C)OC(=O)N1CCC[C@H]1c1nnc(SCc2cccc(Cl)c2)o1	0.5	1.1	3.9	1.2%	-8.2	12.7
COc1ccc(-c2ccc(CCC(=O)O)n2Cc2ccco2)cc1	-0.9	-0.2	-3.6	1.0%	5.0	-5.8
O=C(NN1C(=O)c2ccccc2NC1c1ccc([N+](=O)[O-])o1)c1ccc(Br)cc1 (stereo not drawn)	0.0	-9.2	-6.6	0.2%	-2.9	-13.1
CN(C)C(=O)CSc1n[nH]c(=O)[nH]c1=O	2.1	8.7	-2.0	-0.8%	-4.1	2.4
CCc1nnc(NC(=O)CSc2nnc3nc(C)cc(C)n23)s1	1.4	2.7	-2.8	1.5%	1.1	20.1
Cc1ccc(-n2nc3c(=O)n(CCCC(=O)NCc4cccc(F)c4)nc(C)c3c2C)cc1	1.6	-13.8	-2.5	0.9%	-12.4	.
Cc1nc2ccc(C(=O)N/N=C/c3cc([N+](=O)[O-])ccc3O)cc2[nH]1	-0.6	-92.1*	-4.7	-0.2%	-4.2	-92.1*
Cc1cc(C2C(C#N)=C(N)OC3=C2C(=O)CCC3)c(C)s1 (stereo not drawn)	-1.1	3.4	-3.5	-1.7%	-15.4	-1.2
CCc1cc(=O)oc2c(C)c(OC(C)C(=O)NCC3CCC(C(=O)O)CC3)ccc12 (stereo not drawn)	.	0.7	1.9	-1.1%	0.1	-24.8
Cc1cccc(N(C(=O)c2csnn2)C(C(=O)NCc2ccccc2)c2ccc(C)o2)c1 (stereo not drawn)	2.1	-3.8	8.4	4.9%	-1.8	5.2
O=C(/C=C/c1ccc(OCCCF)cc1)NCc1ccc(Cl)c(Cl)c1	1.2	-0.5	-0.9	?	-4.5	-1.5
CCN(CC)Cc1c(O)ccc2c(=O)c(-c3ccccc3OC)coc12	0.7	1.9	-2.9	1.5%	-4.5	4.0
Clc1ccccc1Nc1ncnc2c1nnn2Cc1ccccc1	1.3	8.3	-0.8	2.8%[38.3 µM]	-15.6	9.4
CCOC(=O)C(C)Oc1cccc2c(=O)n(CC(=O)Nc3ccc(OCC)cc3)ccc12 (stereo not drawn)	-0.4	-4.7	-2.1	4.9%	-2.0	2.7

Assay outcomes: PubChem, National Center for Advancing Translational Sciences (NCATS)
